Assay outcomes from PubChem BioAssay.
D2 ag: agonists of human D2 dopamine receptor (beta-arrestin); actives 0.084% (n = 360,000); AID 624465; DiscoveRx PathHunter D2 beta-arrestin, luminescence, 90 min; 100% = 57 uM dopamine signal; activation, % (concentration not given with the values); in the data active = activation above about 40%; inconclusive = about 15% to 40%; inactive = below about 15%; further: compound concentration not given in the record; the text of the record calls up to 30% inactive
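DiscoveRx PathHunter D2 beta-arrestin cells (2,100/well) attached overnight, then compound-stimulated 90 min at 37 C in HBSS/10 mM HEPES/0.1% Tween-20 buffer; beta-galactosidase complementation read by luminescence after 1 h at ambient temperature. Dopamine 57 uM final (EC100) as control.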
CtBP-E1A inh: blocks the CtBP interaction with E1A. activity change, % (no concentration beside the values). actives 0.49% (n = 340,000). AlphaScreen GST-E1A/His-CtBP binding, 1536-well; hits give low values; control for the full effect not named in the record. AID 651724; in the data active means activity change below about -65%; inconclusive means about -30% to -65%; inactive means above about -30%; further: on the % scale 0 is the no-effect control and ±100 the full control effect; compound concentration not given in the record
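Steps: dispense buffer (Tris pH 8.0, NaCl 300 mM, TCEP 1 mM, BSA, Tween 20); add 5X protein mix (GST-E1A, His-CtBP, 125 nM each); pin 23 nL compound; 2 h at 37 °C, dark; add 5X beads (50 ug/mL); 1 h; read.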
TRPV1 PAM: human TRPV1 potentiation; Q8NER1; TRPV1-expressing cells, Fluo-8 calcium influx, capsaicin EC20 potentiation; host cell line not named in the record; control for the full effect not named in the record; potentiation, % at 8.33 µM; actives 0.02% (n = 320,000); active means potentiation above 80%; inconclusive means 30% to 80%; inactive means below 30%; further: 0% is about no effect
Target sequence (Q8NER1 whole entry, looked up): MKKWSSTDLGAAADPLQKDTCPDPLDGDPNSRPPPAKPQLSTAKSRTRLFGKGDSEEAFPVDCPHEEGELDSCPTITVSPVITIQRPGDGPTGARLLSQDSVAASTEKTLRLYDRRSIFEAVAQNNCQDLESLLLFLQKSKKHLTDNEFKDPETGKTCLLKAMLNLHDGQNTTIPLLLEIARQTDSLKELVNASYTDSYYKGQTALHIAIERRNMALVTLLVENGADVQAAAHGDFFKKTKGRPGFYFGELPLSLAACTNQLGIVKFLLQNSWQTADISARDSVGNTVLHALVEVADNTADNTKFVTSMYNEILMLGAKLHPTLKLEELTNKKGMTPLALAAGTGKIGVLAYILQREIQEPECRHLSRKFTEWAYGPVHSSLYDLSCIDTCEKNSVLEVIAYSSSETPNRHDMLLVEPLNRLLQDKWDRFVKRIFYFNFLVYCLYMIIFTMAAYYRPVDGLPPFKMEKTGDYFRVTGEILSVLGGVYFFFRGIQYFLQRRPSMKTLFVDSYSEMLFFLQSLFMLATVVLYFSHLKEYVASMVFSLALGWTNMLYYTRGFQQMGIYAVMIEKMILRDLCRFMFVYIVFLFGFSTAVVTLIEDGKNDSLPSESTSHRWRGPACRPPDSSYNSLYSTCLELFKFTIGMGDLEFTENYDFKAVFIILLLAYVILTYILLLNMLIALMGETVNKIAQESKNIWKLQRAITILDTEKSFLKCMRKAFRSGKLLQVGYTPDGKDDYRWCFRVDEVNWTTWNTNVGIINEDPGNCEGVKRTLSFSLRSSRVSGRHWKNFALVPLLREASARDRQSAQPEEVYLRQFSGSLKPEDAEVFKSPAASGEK
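TRPV1-expressing cells were cultured overnight at 35.5C and loaded with Fluo-8 calcium dye for 40 to 90 min at room temperature. After a 10 s baseline, compound was added and calcium influx was read kinetically for 3 min (ex 480/em 520 nm).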
Six1-Eya2 blk: inhibitors of human Six1/Eya2 interaction. actives 0.56% (n = 360,000). AlphaScreen GST-Six1/His-Eya2 binding, biochemical; hits give low values; control for the full effect not named in the record. activity change, % (no concentration beside the values); in the data active = activity change below about -65%; inconclusive = about -30% to -65%; inactive = above about -30%; further: on the % scale 0 is the no-effect control and ±100 the full control effect; compound concentration not given in the record
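Homogeneous AlphaScreen proximity assay pairing GST-Six1 with His-tagged Eya2 (added as 5X mix: 250 nM and 500 nM) in 50 mM Tris pH 8.0, 300 mM NaCl, 1 mM TCEP. Glutathione donor and nickel acceptor beads; 1 h, 37 °C, dark.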
D2 PAM: potentiates the human D2 dopamine receptor allosterically. P14416. DiscoveRx D2 beta-arrestin cells, luminescence, 90 min; 100% = 57 uM dopamine signal. potentiation, % (test concentration not listed). actives 0.23% (n = 360,000). AID 624464; active = potentiation of 50% or more; inconclusive = 30% to 50%; inactive = 30% or less;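 further: compound concentration not given in the record; tested on top of an EC20 dose of dopamine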
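PathHunter D2 cells, attached overnight at 37 deg C, received compound in DMSO plus dopamine at EC20 (50 nM final) for 90 min at 37 deg C. Beta-arrestin recruitment was read as luminescence after 1 h with detection reagent at ambient temperature.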
PINK1 modulator: modulators of PINK1 expression. PINK1 immunofluorescence, high-content cytometry, 24 h. Potency, µM (titrated, usually from 76.6 µM), for inactives: top-dose activation (PINK1 increase), hits mostly activators. actives 0.2% (n = 410,000). AID 624263; active = well fitted activation curve with a large enough effect; inconclusive = small, poorly fitted or top-dose-only effect; inactive = flat fitted curve, though single readings scatter; cell line not stated here;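 further: potency means the concentration at half of the fitted maximal effect; % of control where 0% means no effect; nearly all actives have a fitted effect of over 65% in size; a mitochondrial uncoupler was the plate control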
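A stable cell line was treated with compounds at 5 concentrations for 24 hours, with CCCP as control. PINK1 levels and mitochondrial localization were measured by immunofluorescence with mitochondrial, cell and nuclear markers after fixation, read by laser-scanning cytometry.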
Sfp inh: Sfp phosphopantetheinyl transferase inhibition; Biochemical Sfp PPTase activity, qHTS; Potency, µM, for inactives: max response, negative = inhibition, usual class: inhibitors; actives 3.5% (n = 310,000); AID 1490; active means well fitted inhibition curve with a large enough effect; inconclusive means small, poorly fitted or top-dose-only effect, or another doubt; inactive means no such curve, though single readings can be large or run the other way;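 further: the enzyme is Sfp with the accession as filed and its product quenches rhodamine fluorescence; potency means the concentration at half of the fitted maximal effect; 0% = enzyme reaction without inhibitor and -100% = no enzyme wells; top concentration of the series not given in the record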
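Compounds were incubated with enzyme (final 15 nM) for 15 min at room temperature before substrate addition started the reaction. Fluorescence at 525 nm excitation, 598 nm emission was recorded immediately and after 30 minutes.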
* marks the source's active call; other numbers are inactive results; ? = inconclusive; · = not tested or not shown; [ ] = another dose, or the depositor's remark.

SMILES | D2 ag | CtBP-E1A inh | TRPV1 PAM | Six1-Eya2 blk | D2 PAM | PINK1 modulator | Sfp inh
N#CC1=C(N)OC2=C(C(=O)CCC2)C12CCN(C(=O)OCc1ccccc1)CC2 | 1.1 | 3.3 | -1.7 | 1.8 | -0.4 | 0.6% | -5.8%
CC(=O)N1CCN(C2=Nc3cccc4cccc2c34)CC1 | -0.9 | 6.1 | 23.2 | -4.2 | -6.7 | 1.9%[38.3 µM] | -10.3%
Cc1cc(C)c(C)c(S(=O)(=O)Nc2cccnc2)c1C | 1.3 | -1.5 | · | 3.5 | -11.3 | 0.8% | ·
CCOc1ccc(Nc2ncnc3c2cnn3-c2ccccc2)cc1 | -1.9 | 3.4 | -8.5 | 0.0 | -7.1 | 15.3% | 34.7%[activator]
COc1ccc(CNc2ccc3c(c2)CCC3)cc1Br | -4.0 | 2.3 | -8.5 | -4.4 | -5.6 | -0.4% | -9.1%
O=C(NCCC1CCCCN1S(=O)(=O)c1ccccc1)C(=O)NCc1cccnc1 (centres undefined) | 4.6 | 4.8 | 4.8 | -5.5 | 6.6 | -0.4% | ·
CSc1ccc(-c2nnn(Cc3ccc(C)cc3)n2)cc1 | 1.8 | 21.7 | 4.5 | 38.5 | -11.0 | 2.3% | 2.1%
CCSc1nnc(NC(=O)CSc2sc3c(O)cc(=O)[nH]c3c2C#N)s1 | -0.6 | -15.5 | 0.6 | ? | -3.7 | 0.3% | -28.6%
CC1CN(Cc2ccc(Cl)cc2Cl)CC(C)O1 (centres undefined) | -1.8 | 0.4 | 2.2 | 11.5 | -6.6 | 0.6% | -28.6%
CC(C)Nc1nc(Cl)nc(NNC(=O)C(C)Oc2ccccc2)n1 (centres undefined) | -3.1 | 8.1 | 10.6 | -1.0 | 11.5 | -1.6% | 10.6%
CCC1(CC)Nc2ccccc2C(=O)N1c1ccc(NC(C)=O)cc1 | 1.5 | 0.3 | -3.7 | 6.0 | -4.2 | 0.8% | 18.1%
O=C(NN1CCOCC1)c1cnn2c(C(F)F)cc(-c3ccccc3)nc12 | -4.4 | 3.7 | -6.2 | -0.4 | -0.6 | 4.2% | 26.4%
Cc1ccc(NC(=O)c2cc(C)on2)cc1 | -2.1 | 1.9 | -10.0 | 5.2 | -8.3 | -3.0%[38.3 µM] | 5.7%
CCOC(=O)C1(C(=O)OCC)COC(=O)C1CN1Cc2cc3ccccc3nc2C1 (centres undefined) | -13.7 | -14.1 | · | -7.1 | -19.3 | ? | ·
CC(=O)Nc1ccc(NC(=O)C(C)OC(=O)c2oc3ccccc3c2C)cc1 (centres undefined) | 2.6 | 1.9 | -8.6 | -0.1 | -2.3 | 16.0% | ·
S=c1[nH]ncn2c1cc1oc3ccccc3c12 | -1.9 | 0.8 | 11.9 | -0.1 | -46.7 | -0.3% | -21.4%
CCS(=O)(=O)NCC(c1cccnc1)N1CCN(c2ccc(F)cc2)CC1 (centres undefined) | -2.0 | 2.2 | -7.9 | -4.1 | -0.9 | 1.9% | -5.9%
Cc1cc(C(=O)N2CCOCC2)n(-c2ccccc2)n1 | -3.1 | 0.0 | · | 11.5 | -5.3 | -0.3% | 0.6%
O=C(Nc1ccc2[nH]c(=O)[nH]c2c1)c1ccc([N+](=O)[O-])o1 | 8.5 | -7.8 | 2.0 | -11.0 | -0.6 | 0.2% | ·
O=C(COc1ccc(Br)cc1)OCCN1CCCCC1 | -3.1 | -0.6 | 21.3 | -6.4 | 1.2 | 0.8% | -5.4%

Entries shown so far that have an NH in an aromatic ring:
SMILES | D2 ag | CtBP-E1A inh | TRPV1 PAM | Six1-Eya2 blk | D2 PAM | PINK1 modulator | Sfp inh
CCSc1nnc(NC(=O)CSc2sc3c(O)cc(=O)[nH]c3c2C#N)s1 | -0.6 | -15.5 | 0.6 | ? | -3.7 | 0.3% | -28.6%
S=c1[nH]ncn2c1cc1oc3ccccc3c12 | -1.9 | 0.8 | 11.9 | -0.1 | -46.7 | -0.3% | -21.4%
O=C(Nc1ccc2[nH]c(=O)[nH]c2c1)c1ccc([N+](=O)[O-])o1 | 8.5 | -7.8 | 2.0 | -11.0 | -0.6 | 0.2% | ·

Next entries follow.
SMILES | D2 ag | CtBP-E1A inh | TRPV1 PAM | Six1-Eya2 blk | D2 PAM | PINK1 modulator | Sfp inh
C/C(=N\NC(=O)C(C)Nc1cccc(Cl)c1)c1ccc([N+](=O)[O-])cc1 (centres undefined) | 1.3 | 5.4 | 2.3 | -11.1 | -13.6 | 10.6% | -7.1%
O=C(CSc1nnc(Cc2ccccc2)o1)N1CCCC1 | -4.8 | -5.2 | -5.8 | 6.2 | -0.9 | 1.3% | 14.7%
Cc1nn(CC(=O)Nc2nnc(C(C)C)s2)c(=O)c2ccccc12 | -4.4 | 1.3 | 4.7 | 0.8 | -3.5 | 0.3% | 9.1%
O=C(COC(=O)c1ccccc1[N+](=O)[O-])Nc1nnc(-c2ccccc2)o1 | -4.8 | ? | 10.3 | -27.9 | -1.8 | 2.7% | ·
CCc1ccc(CN(C)C(=O)C2CCC(=O)N(CCCN3CCCC3=O)C2)cc1 (centres undefined) | -4.1 | 16.0 | 0.1 | -0.2 | -3.2 | 0.6% | 17.6%
COc1cc(/C=N/n2cnnc2)ccc1OCc1ccc(C)cc1 | -3.4 | -8.8 | 11.9 | -12.9 | 3.5 | -0.3% | -4.7%
CC(C)NC(=O)c1ccc2c(c1)N(CC(=O)Nc1ccccc1F)C(=O)C(C)(C)O2 | -2.6 | 5.3 | 26.0 | 16.4 | -12.5 | 1.8% | 16.2%
COc1ccc(C(=O)NC2CCN(CC(=O)NCc3ccccc3)CC2)cc1 | 1.0 | -4.5 | 8.6 | 2.1 | -0.3 | 0.9% | 13.6%
COc1ccc(/C=C/C(=O)Nc2cccc(S(=O)(=O)N3CCOCC3)c2)cc1OC | -4.6 | 0.8 | 4.3 | ? | -0.2 | 1.9% | ·
S=C(NCc1ccco1)Nc1ccc(Cl)cc1Cl | -3.0 | -15.4 | -13.5 | -13.2 | -11.6 | 3.0% | ?
COc1ccc(S(=O)(=O)N2CCOCC2)cc1C(=O)Nc1cccc(C(=O)NC2CC2)c1 | -5.1 | -14.0 | · | ? | -2.0 | 0.7% | ·
O=C(Nc1ccccn1)C(=O)Nc1ccccn1 | -0.6 | 2.9 | 3.5 | 4.3 | -3.6 | 1.9% | 16.2%
O=c1[nH]cc(-c2ccc(Br)cc2)n1Cc1ccccc1 | 13.5 | · | -17.5 | -22.4 | -1.0 | 1.3% | -6.7%
O=C(Nn1c(Cc2ccccc2)nc2ccccc2c1=O)c1c(O)c2cccc3c2n(c1=O)CCC3 | -5.4 | 4.6 | ? | -0.9 | -2.6 | 1.9% | 6.9%
NC(=O)CN(N=Nc1cccc([N+](=O)[O-])c1)c1cccc([N+](=O)[O-])c1 | -4.1 | -19.4 | -6.0 | -0.4 | -2.7 | 5.1% | -0.6%
Nc1ccn(Cc2ccccc2F)n1 | -3.4 | 4.9 | ? | 5.0 | -9.1 | 0.7% | 13.3%
NS(=O)(=O)c1ccc(CCNC(=O)C2CCCN2C(=O)c2cccs2)cc1 (centres undefined) | -2.5 | -1.7 | · | 9.6 | -23.2 | -0.1% | ·
O=[N+]([O-])c1ccc(Cl)c(S(=O)(=O)Nc2ccc3cn[nH]c3c2)c1 | 1.5 | 2.9 | · | -3.2 | 1.3 | -0.7% | ·
C/C(=N\NC(=O)C(=O)Nc1cccc(Cl)c1)c1ccncc1 | -9.4 | 0.9 | -13.2 | 3.4 | 16.5 | 4.7% | 3.1%
Cc1noc(C)c1COC(=O)CCC(=O)c1ccc(F)cc1 | -2.9 | 10.5 | -11.2 | 6.8 | -9.7 | -2.4% | 10.8%
O=c1c(S(=O)(=O)c2ccc(Cl)cc2)cn(Cc2ccccc2)c2ccc(F)cc12 | 1.9 | -2.5 | 7.6 | -0.7 | -16.3 | 1.3% | 0.2%
CCCS(=O)(=O)NC(=O)C1(C)CCCN(C(=O)c2ccnc(Cl)c2)C1 (centres undefined) | -6.5 | -15.6 | · | 0.7 | -3.6 | 2.6% | ·
CCNC(=O)CCSc1nc(C)cc(C)n1 | -6.4 | -8.7 | -15.0 | 17.6 | -7.9 | -0.7% | 31.6µM*
Clc1cccc(OCCN2CCN(CCOc3cccc(Cl)c3)CC2)c1 | ? | -11.2 | -1.6 | -18.3 | -14.6 | -1.5% | -7.4%
Cc1ccc(NC(=O)c2cc(S(=O)(=O)NCCc3ccccc3)ccc2F)cc1Cl | -1.6 | 14.3 | 0.4 | 9.2 | -15.3 | 20.7% | 12.7%
COc1ccc(C(C)=NNS(=O)(=O)c2ccc(C)cc2)cc1OC | -0.3 | 2.3 | · | 8.6 | -7.7 | 1.0% | ·
COc1ccc(C)cc1S(=O)(=O)Nc1cccc(SC)c1 | 0.0 | 2.0 | 4.9 | -4.4 | -2.5 | -0.3% | 18.7%
CCOC(=O)C1=C(C)NC2=C(C(=O)CCC2)C1c1cccs1 (centres undefined) | -2.6 | -0.1 | 1.2 | -0.2 | -8.6 | 0.0% | 17.3%
COc1ccc(N(CC(=O)NC(C)C)S(=O)(=O)c2ccc(NC(C)=O)cc2)cc1 | -1.7 | -13.2 | -1.3 | -2.7 | -8.3 | · | 7.2%
CCC(C)SCC(=O)Nc1ccc(S(=O)(=O)N2CCOCC2)cc1OC (centres undefined) | 1.2 | -7.8 | -11.0 | 3.2 | 1.8 | 0.3% | 14.4%
Cc1nc2sccn2c(=O)c1Cl | -3.4 | 8.0 | -0.3 | -2.7 | -3.1 | 2.4%[38.3 µM] | 15.8%
COc1ccc(NS(=O)(=O)c2ccc(O)c(NS(=O)(=O)c3ccc(NC(C)=O)cc3)c2)cc1 | ? | -0.4 | · | 3.5 | -3.0 | -1.5% | ·
COc1ccc(NC(=O)COc2cccc(-n3cnnn3)c2)cc1Cl | 1.5 | 4.9 | -11.1 | -4.6 | 2.3 | 15.6% | ·
CC(C)CN(CCC(=O)O)CC(C)C | -1.4 | -4.6 | -1.8 | 5.3 | -8.9 | · | -0.8%

Among those listed so far, two have a cyano group:
SMILES | D2 ag | CtBP-E1A inh | TRPV1 PAM | Six1-Eya2 blk | D2 PAM | PINK1 modulator | Sfp inh
N#CC1=C(N)OC2=C(C(=O)CCC2)C12CCN(C(=O)OCc1ccccc1)CC2 | 1.1 | 3.3 | -1.7 | 1.8 | -0.4 | 0.6% | -5.8%
CCSc1nnc(NC(=O)CSc2sc3c(O)cc(=O)[nH]c3c2C#N)s1 | -0.6 | -15.5 | 0.6 | ? | -3.7 | 0.3% | -28.6%
